Screening results (PubChem)
Bfl-1 A1 inh = inhibitors of the anti-apoptotic protein A1, read as caspase activation. MEF A1-2A-BIM cells, Caspase-Glo 3/7 luminescence, 3 h; percent of clofoctol response, vehicle zero. caspase activation, % (concentration not given with the values). 330,000 compounds, 0.066% hits;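 active = over half of replicate activation scores above 10%, or exactly half above 10 with the replicate mean above 10; inconclusive = replicate mean below 10 yet half the replicates above 10; inactive = over half of replicates below 10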;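 also: wells of about 30 µL received 50 nL stock; many hits fall short of the cut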
AF4-AF9 inh = blocks AF4 peptide binding to human AF9. P42568. AlphaScreen, biotin-AF4 peptide binding to FLAG-AF9. inhibition, % at 10 µM. 350,000 compounds, 0.47% hits;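 active = every replicate reaching a set inhibition limit, whatever the replicate mean, cut at about 25% in these data; inconclusive = mean inhibition reaches that limit but some replicates miss it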;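 also: 0% = plate neutral control median and 100% = total signal loss; the record names both 10 and 1 µM as test concentration; the first replicate is given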
Target sequence (P42568 whole entry, looked up): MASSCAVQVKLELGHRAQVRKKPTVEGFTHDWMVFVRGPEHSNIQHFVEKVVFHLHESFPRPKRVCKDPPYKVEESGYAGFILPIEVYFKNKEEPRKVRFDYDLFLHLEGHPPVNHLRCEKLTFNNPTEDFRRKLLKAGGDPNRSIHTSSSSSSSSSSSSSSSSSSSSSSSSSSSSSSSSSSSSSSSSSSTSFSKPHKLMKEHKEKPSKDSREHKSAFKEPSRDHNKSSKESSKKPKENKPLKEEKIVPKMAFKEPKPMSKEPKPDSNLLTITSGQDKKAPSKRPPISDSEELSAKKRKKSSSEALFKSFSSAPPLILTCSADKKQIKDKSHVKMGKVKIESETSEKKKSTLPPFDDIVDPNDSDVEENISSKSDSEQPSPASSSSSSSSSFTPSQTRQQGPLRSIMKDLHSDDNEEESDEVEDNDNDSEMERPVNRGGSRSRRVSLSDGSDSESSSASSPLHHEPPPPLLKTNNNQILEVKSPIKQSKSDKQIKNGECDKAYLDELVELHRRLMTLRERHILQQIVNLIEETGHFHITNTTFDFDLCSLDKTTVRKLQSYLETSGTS
RanGTP-Imp inh = disruptors of Ran-importin-beta complex formation – biochemical, FRET, CFP-Ran, YFP-importin-beta, homogeneous, primary screen | cell-free CFP-Ran/YFP-importin-beta FRET ratio | 300,000 compounds, 1.1% hits | AID 2216 | inhibition, % (no concentration beside the values);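 active = most replicates above 15%; inconclusive = exactly half above 15%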;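 also: 0% = DMSO wells and 100% = Ran loaded with GDP instead of GTP; wells of about 40 µL received 100 nL stock; the first replicate is given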
rRNA inh HTS = selective bacterial rRNA inhibition in E. coli. AID 720706. E. coli WT GFP vs humanized-ribosome RFP mutants, fluorescence, 24 h; hits give low values; DMSO median 0, no signal -100. GFP signal change (wild-type ribosome), % (test concentration not listed). 350,000 compounds, 1.6% hits;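 active = significant combined selectivity score with lowered wild-type GFP, culture density cut under 30%, mutant RFP and density less affected; inactive = any of these conditions unmet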; also: one replicate is shown; some compounds called inactive have numbers as strong as hits
T cruzi inh = blocks replication of Trypanosoma cruzi; T. cruzi beta-gal in NIH3T3, luminescence, 90 h; inhibition, % (test concentration not listed); 300,000 compounds, 1.4% hits;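 active = mean inhibition across valid replicates above about 55%, limit read from the data; inconclusive = mean below that limit but half or more replicates reach it; inactive = mean below it, under half of replicates reach it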;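 also: signal also drops with host cell toxicity which is not excluded here; 0% = plate median of DMSO wells and 100% = zero luminescence signal; higher percent means less beta-gal luminescence so fewer parasites; stock transfer was 50 nL into about 50 µL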
Beta apoptosis = beta cell apoptosis inhibition; INS-1E cytokine-induced death, ATP luminescence, 48 h; percent of positive-control rescue, neutral wells zero; 300,000 compounds, 0.8% hits; protection from apoptosis, % (no concentration beside the values);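 active = all replicates at 75% or more, or half of them and the mean; inconclusive = half reach 75% but not the mean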;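 also: 0% = cytokine-treated negative control wells and 100% = positive control rescue; higher means more ATP so stronger rescue from cytokine killing; wells of about 40 µL received 100 nL stock; the first replicate is given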
Vif A3G = inhibitors of Vif binding to APOBEC3G peptide, primary screen, biochemical, TR-FRET, GST-Vif 1-94, biotin-A3G peptide, dose response retest (AID 1117319); TR-FRET GST-Vif / biotin-A3G peptide binding; higher % means a stronger effect; test concentration not given here; strong numbers were not always called active; one-dose inhibition, %; IC50 in µM for titrated hits; 260,000 compounds, 0.57% hits;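 active = above the screen mean plus three standard deviations and confirmed in dose response; inconclusive = results disagree or hit not tested in dose response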;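 also: Vif residues 1-94 fused to GST binding biotinylated APOBEC3G peptide 110-148; 0% = full assay without inhibitor and 100% = GST in place of GST-Vif; retest series ran down from 100 µM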
Calb FLC = affects C. albicans growth with fluconazole | C. albicans CaCi-2 (fluconazole-resistant clinical isolate) + fluconazole, Alamar Blue growth, 48 h | growth inhibition, % (test concentration not listed) | 300,000 compounds, 0.57% hits | AID 1979;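 active = most replicates above 75%; inconclusive = exactly half above 75%; inactive = most below 75%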;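 also: all wells also contain fluconazole at 8 µg/ml as a sub-toxic cotreatment; 0% = median of DMSO wells and 100% = median of geldanamycin control wells; wells of about 8 µL received 7.5 nL stock; the first replicate is given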
rRNA inh HTS OD600 = also measured in rRNA inh HTS; calls as there; OD600 change, %; measured here: OD600 growth;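 optical density of the mix in the first replicate; 0 = DMSO median and -100 = no signal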
rRNA inh HTS RFP = recorded beside rRNA inh HTS, whose call it bears; RFP signal change, %; measured here: RFP humanized mutant strains;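 first replicate; 0 = DMSO median and -100 = no signal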
* hit, by the source's call; ? = inconclusive; · = not tested or not shown; & = joins results of further samples. An excerpt; rates above refer to the full screens.

SMILES	Bfl-1 A1 inh	AF4-AF9 inh	RanGTP-Imp inh	rRNA inh HTS	rRNA inh HTS OD600	rRNA inh HTS RFP	T cruzi inh	Beta apoptosis	Vif A3G	Calb FLC
Cc1cccc(C)c1NC(=O)CN(C1CCCCC1)S(C)(=O)=O	0.5	-10	4.0	7	8	-1.3	-14	-4	·	-4
CC(C)Cc1nc2ccc(N)cc2[nH]1	0.1	21	-6.0	3	3	-0.6	-19	1	·	10
CCOc1[nH]n(-c2ccccc2)c(=O)c1C=Nc1ccc(F)cc1F	0.0	4.6	-0.1	7	2	0.8	-6	-3	-2%	-47
CCc1ccc(Nc2n[n+](-c3ccccc3)c(-c3ccc(SC)cc3)s2)cc1	-5.6	6.1	2.3	0	8	-9.4	32	37	·	-30
CC(C)(C)c1ccc(/C=C2\CCn3c2nc2cc(C(=O)O)ccc2c3=O)cc1	1.3	·	-0.7	-2	1	0.3	4	-6	-2%	-4
CC(C)(C)[C@@H]1C=C(C(=O)NCc2ccccc2)O[C@H](OCc2ccc(CO)cc2)C1	0.6	-2.3&-6.1	7.2	-19	-32	-9.5	18	8	?	7
Cc1ccc(-c2nnc(N3CCCCCC3)c3ccccc23)cc1	0.2	-4.6	-4.2	1	3	0.1	64*	12	·	-2
COc1ccc(OC)c(N)c1	1.0	·	3.6	·	·	·	7	-1	15%	13
Cc1ccc(C(=O)NCCc2nc3ccccc3[nH]2)cc1[N+](=O)[O-]	0.5	·	4.6	·	·	·	58*	-9	·	?
COc1ccccc1N1CCN(S(=O)(=O)CCNC(=O)CCCc2ccccc2)CC1	0.2	7.2	-4.1	-6	0	-1.0	2	10	-3%	3
O=C(/C=C/c1ccccc1Cl)NCCCn1ccnc1	0.4	1.8	-4.4	2	-2	0.3	38	5	2%	4
CC(NC(=O)c1cc(S(=O)(=O)N(C)C)ccc1N1CCCC1)C1CC2CCC1C2 (stereo not given)	0.3	-0.9	3.0	18	10	0.9	24	3	?	-18
CN(c1cccc(Cl)c1)S(=O)(=O)c1cccc(C(=O)NC2=NCCS2)c1	0.3	·	-1.7	·	·	·	4	-17	2%	3
CCOc1ccccc1C(=O)OCC(=O)NCC1CCCO1 (stereo not given)	0.0	-0.3	·	15	13	1.1	·	0	4%	·
CC(=O)c1cc(-c2ccccc2)n(CCC(=O)NC2CCC(C)CC2)c1C (stereo not given)	0.3	·	2.4	·	·	·	-2	5	·	-1
COc1cccc(CN(CC(=O)NC2CCCC2)C(=O)CCC(=O)Nc2cc(C)on2)c1	-0.5	·	-1.5	·	·	·	8	-3	1%	·
CC(=O)Nc1ccc(C(=O)OCc2ccc(F)cc2)cc1	-1.1	-4.8	0.8	-31	-49	-7.6	13	-8	-2%	24
CN(C)C(=O)C12CCC(C)(c3nc4ccccc4nc31)C2(C)C (stereo not given)	-0.5	-5.2	-14	·	·	·	-2	-8	4%	1
O=C(CC1Nc2ccccc2NC1=O)NCCc1ccccc1 (stereo not given)	-0.2	·	6.1	·	·	·	1	·	5%	11
COc1ccc(C2NS(=O)(=O)N=C2N)cc1 (stereo not given)	0.4	-1.3	-3.2	2	-1	-2.2	-2	-6	-4%	1
Cc1cc(NC(=O)C(C)SCC(=O)O)no1 (stereo not given)	0.9	1.4	-2.3	19	21	1.1	-11	-2	-10%	12
Cc1ccc(O)c(NC(=S)NC(=O)Cc2ccc(Cl)cc2)c1	-0.2	1.0	8.1	-26	-12	-5.8	-1	10	·	-2
COc1ccc(CCNC(=O)CC2SC(=NCc3ccccc3)NC2=O)cc1 (stereo not given)	1.2	-7.2	-1.1	-3	9	-3.2	-4	-9	-5%	-16
CCOc1ccc(Nc2cc(C)nc(N3CCOCC3)n2)cc1	0.5	·	?	·	·	·	12	-9	27%	3
Cc1ccc(OCC(=O)NCCNC(=O)c2ccco2)cc1	0.2	-13	4.7	-1	-6	-3.6	-6	-1	·	13
Cc1cc(C)c2c(c1)OC(O)(C(F)F)CC2=O (stereo not given)	0.5	-74	4.1	-5	-8	-7.5	-5	3	-3%	-3
O=C(NCCN1CCN(C(=O)c2c(F)cccc2F)CC1)C(=O)Nc1ccc(Cl)cc1	-0.6	-1.2	·	-1	4	-2.3	12	-7	·	·
COc1ccc(C2(C)NC(=O)N(CC(=O)NC3CC3)C2=O)cc1 (stereo not given)	1.3	-3.5	·	16	22	-2.4	·	-5	-2%	·
Cc1nn(Cc2ccccc2)c(C)c1NC(=O)c1ccc([N+](=O)[O-])cc1[N+](=O)[O-]	-1.1	0.3	-5.2	15	14	-1.5	56*	19	-7%	4
CC(C)(C)CC(C)(C)N=C1NS(=O)(=O)c2cc([N+](=O)[O-])ccc21	-0.3	1.3	-1.7	8	-2	12	?	8	6%	-7
C[C@]1(C2CCCC2)Cc2cc(OCC(=O)O)c(Cl)c(Cl)c2C1=O	-0.6	-2.5	0.0	·	·	·	-14	·	·	-9
CN(/C(=N/S(=O)(=O)c1ccccc1)c1ccccc1)S(=O)(=O)c1ccccc1	0.4	-0.1	2.1	-5	-6	-6.5	-6	-20	-8%	0
CN=C1SC(CC(=O)NCCc2ccc(OC)c(OC)c2)C(=O)N1C (stereo not given)	-0.6	-29	7.0	1	7	1.8	-8	4	18%&6%	15
COc1ccc(-n2nc(C(=O)NCC(=O)N3CCC(C)CC3)c3ccccc3c2=O)cc1	-0.7	-3.6	1.7	4	-5	-0.8	1	3	·	27
CC(C)(C)c1ccc(C(=O)C=[N+]=[N-])cc1	-0.1	·	·	·	·	·	·	-5	-14%	7
COC(=O)C(F)(Sc1c(C)n(C)n(-c2ccccc2)c1=O)C(F)(F)F (stereo not given)	0.0	·	0.8	·	·	·	-6	2	5%	5
Cc1ccc(S(=O)(=O)/N=C(/Nc2c(C)n(C)n(-c3ccccc3)c2=O)c2ccccc2)cc1	-0.3	1.3	1.6	3	4	-3.0	-9	-6	·	-5
CCOC(=O)N1CCN(C(=O)CS(=O)(=O)c2cn(Cc3ccccc3Cl)c3ccccc23)CC1	0.0	2.3	5.2	5	10	0.2	-12	2	-3%	2
S=C(NCCc1ccccc1)N1CCN(C23CC4CC(CC(C4)C2)C3)CC1	0.7	1.0	3.7	1	-11	11	39	-5	·	4
COc1ccccc1CNC(=O)COC(=O)Cc1ccc(F)cc1	1.1	-1.8	-0.1	2	1	0.3	-3	·	-4%	-12
COCc1cc(C)n(CC(=O)Nc2cc(C)cc(C)c2)c(=O)c1C#N	-0.1	-3.6	-3.0	19	6	3.9	-8	-6	6%	-20
O=C(CCC1CCN(C(=O)c2cncs2)CC1)Nc1ccccc1	0.2	-2.8	5.6	8	7	0.3	27	-6	·	1
N#CC1(NC(=O)COC(=O)c2cc(=O)[nH]c3ccccc23)CCCCC1	0.6	-9.0	-4.0	6	13	2.4	-7	3	·	6
CCOC(=O)Cc1cc(-c2ccc(F)cc2)nc2ccc3ccccc3c12	1.3	·	-0.3	·	·	·	25	5	-13%	11
CCCCCn1nc(-c2ccccc2)c2nc3ccccc3nc21	0.7	·	·	·	·	·	24	-1	-3%	8

Ordered by value in rRNA inh HTS RFP (lowest first): three from the list above.
canonical_smiles,rRNA inh HTS RFP
Cc1ccc(S(=O)(=O)/N=C(/Nc2c(C)n(C)n(-c3ccccc3)c2=O)c2ccccc2)cc1,-3.0
CCOC(=O)N1CCN(C(=O)CS(=O)(=O)c2cn(Cc3ccccc3Cl)c3ccccc23)CC1,0.2
CN=C1SC(CC(=O)NCCc2ccc(OC)c(OC)c2)C(=O)N1C (stereo not given),1.8

The listing continues:
SMILES	Bfl-1 A1 inh	AF4-AF9 inh	RanGTP-Imp inh	rRNA inh HTS	rRNA inh HTS OD600	rRNA inh HTS RFP	T cruzi inh	Beta apoptosis	Vif A3G	Calb FLC
N#Cc1ccc(/C=N/NC(=S)Nc2ccc(S(=O)(=O)N3CCOCC3)cc2)cc1	0.3	-3.9	-2.8	-14	-8	1.2	-12	2	28%	-3
CCCN1CCc2c(sc(NC(=O)c3ccc(S(=O)(=O)N(C)c4ccccc4)cc3)c2C(N)=O)C1	0.7	·	?	-2	7	26	15	8	·	1
COc1cc(C(=O)NCC2CCCO2)cc(Br)c1OCc1ccccc1 (stereo not given)	1.1	-3.9	·	-54	-72	-11	·	10	·	·
CCOc1ccccc1NC(=O)C1CCN(c2nc(-c3ccc(OC)cc3)no2)CC1	-0.1	-11	-1.7	3	4	-0.6	11	1	·	4
COc1ccc2[nH]c(=O)c(CN(Cc3ccco3)C(c3nnnn3Cc3ccccc3)C(C)C)cc2c1 (stereo not given)	-0.2	·	-4.2	-4	14	4.3	76*	-1	95µM*	13
COc1ccccc1N(C)S(=O)(=O)c1ccc(C(=O)NC2CCCCC2)cc1	0.9	0.8	·	-15	-37	-3.5	·	1	3%	·
Cc1cc(C)c2oc(-c3cccc(N)c3)nc2c1	-5.0	0.1	2.2	5	12	-4.9	22	4	1%	27
CCCn1nnnc1SCC(=O)c1ccc2c(c1)OCCO2	-0.7	·	-0.8	·	·	·	-17	-6	2%	3
CCOc1ccccc1N1CCN(C(=O)c2ccc3[nH]c(C)c(C)c3c2)CC1	0.3	13	0.0	-35*	-18*	7.1*	13	7	·	·
CN(CC(=O)Nc1ccc(F)cc1)C(=O)COC(=O)CCN1C(=O)C2CC=CCC2C1=O (stereo not given)	1.0	-0.5	-3.3	1	8	-0.4	13	-3	·	0
CCCc1nn2c(=O)cc(CSCC(=O)Nc3ccccc3)nc2s1	0.2	-3.0	-3.3	19	14	2.0	-7	-9	-2%	-9
COc1ccc2c(c1)CCc1c(C(=O)Nc3ccc(OC)c(OC)c3)noc1-2	-1.9	·	2.9	·	·	·	-6	-4	1%	15
CC(C)CCNC(=O)c1cccnc1Sc1ccccc1	0.0	·	-1.8	·	·	·	-6	-6	0%	13
COc1ccc(NC(C)=O)cc1S(=O)(=O)N1CCc2ccccc21	0.3	2.6	1.7	6	3	-0.7	-2	-4	6%	-2
COC(=O)c1c(-c2c(Cl)cccc2Cl)noc1NC(=O)N(C)C	0.9	-5.5	-2.8	10	-5	1.0	-6	4	-4%	6
Cc1cccc(C)c1OCc1cc(C(=O)N(C)Cc2cc(C3CC3)n[nH]2)no1	0.8	-1.0	-1.3	-23	-48	5.9	28	·	-17%	6
CC1([N+](=O)[O-])COC2(OC1)C(=O)Nc1ccccc12 (stereo not given)	0.0	1.0	0.6	1	1	0.3	2	-3	1%	-1
Cc1ccnc2nc(C(=O)Nc3nc(-c4ccccn4)cs3)nn12	0.8	-7.2	-5.4	4	13	-0.7	-22	-2	14%	-5

Records above that bear a hit mark in Vif A3G:
canonical_smiles | AF4-AF9 inh | RanGTP-Imp inh | rRNA inh HTS | rRNA inh HTS OD600 | rRNA inh HTS RFP | Vif A3G
COc1ccc2[nH]c(=O)c(CN(Cc3ccco3)C(c3nnnn3Cc3ccccc3)C(C)C)cc2c1 (stereo not given) | · | -4.2 | -4 | 14 | 4.3 | 95µM*
